MgrA DNA FP: modulators of Staphylococcus aureus MgrA DNA binding | AID 602314 | fluorescence polarization | 84,000 compounds, 0.13% hits | inhibition, %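 (about 10 µg/mL by stock and volumes)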;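 active means above 50% in either of two replicates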;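 further: 0% = protein plus DNA without compound and 100% = DNA alone without protein; higher means less MgrA bound to DNA so lower polarization; one replicate is shown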
Sa helicase inh: S. aureus DNA helicase inhibition; AID 485395; inhibition, %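 (tested at about 80 µM)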; 120,000 compounds, 0.05% hits; purified S. aureus helicase, fluorescence unwinding assay; about half of the hits fall short of the stated cut;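 active means both duplicates at 50% or more, or one of them with a favoured structure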;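 further: 0% = mean of negative control wells and 100% = mean of positive control wells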
Active calls of the source: *; x = no result given; & = joins results of further samples. This is a subset, so the mix of outcomes need not match the whole.

SMILES	MgrA DNA FP	Sa helicase inh
COc1ccc(-c2[nH]ncc2Oc2ccccc2)c(O)c1	x	22
COc1cc2c(cc1OC)C(C)N(c1ncnc3onc(C)c13)CC2 (stereo unspecified)	x	-12
CCc1c(CN2CCN(Cc3ccccc3)CC2)csc1C	x	17
Cn1c(=O)c2c(nc(SCC(=O)Nc3ccccc3F)n2Cc2ccccc2)n(C)c1=O	1.8	3
O=C(Nc1ccc(F)cc1F)C(Cc1ccccc1)NS(=O)(=O)c1cccc2cccnc12 (stereo unspecified)	x	12
O=C(NCCCN1CCCC1=O)Nc1cccc(C(F)(F)F)c1	x	11
CCOc1ccccc1C1C2=C(CC(C)(C)CC2=O)Nc2ccccc2N1C(=O)c1ccccc1 (stereo unspecified)	1.4	x
Cc1ccc2oc3c(c(=O)c2c1)C(c1cccs1)N(CCN(C)C)C3=O (stereo unspecified)	x	-1
N#Cc1ccc(C23CC4CC(CC(C4)C2)C3)nc1SCCN1CCCCC1	0.2	9
Cc1c(C#N)c(-n2cccc2)n(CC2CC2)c1C	0.2	x
COC(=O)c1c(C)oc2ccc(O)c(CN3CCCCC3)c12	x	19
Cc1nnc(SCC(=O)NCC(F)(F)F)n1N	x	12
COc1cc(C2C3=C(CC(C)(C)CC3=O)Nc3ccccc3N2C(=O)c2ccccc2)cc(OC)c1OC (stereo unspecified)	-0.2	x
CCOc1ccc(NC(=O)CC2C(=O)NCCN2C(=O)Nc2ccccc2)cc1 (stereo unspecified)	3.0	13
CCOC(=O)/C(=N\O)C1=NC(C)(C)Cc2ccccc21	0.1	3
O=C(O)c1cc(-c2cccs2)nc2ccc(Br)cc12	16	3
N#Cc1ccc(OCC(=O)Nc2ccc(-c3nnc4n3CCCCC4)cc2)cc1	x	-4
COC(=O)c1ccccc1NC(=O)CSc1nc2ccccc2s1	x	-10
CCC1(c2ccccc2)NC(=S)N(C)N1 (stereo unspecified)	2.4	11
O=C(Nc1cc(Cl)ccc1Cl)c1cccn(OCc2ccc(F)cc2)c1=O	x	11
CC(=O)N1CCN(S(=O)(=O)c2cccc(C(=O)OCC(=O)c3cc(C)n(-c4ccc5c(c4)OCO5)c3C)c2)CC1	x	9
CCC(C)Nc1ncnc2cc(OC)c(OC)cc12 (stereo unspecified)	2.5	x
NS(=O)(=O)c1cc(C(=O)OCC(=O)N2CCCC2=O)ccc1Cl	x	-8
O=C(NC1CCCC1)c1cc2c(Cl)nc3ccccc3c2s1	1.2	11
O=C(O)C1CC(=O)N(Cc2cccs2)C1 (stereo unspecified)	3.0	x
Cc1ccccc1OCCn1c(O)c(N=O)c2ccccc21	x	5
Cc1n[nH]c(C)c1S(=O)(=O)N1CCC(C(=O)N(C)Cc2cccc(Cl)c2Cl)CC1	x	7
Cn1c(SCc2c(F)cccc2Cl)n[nH]c1=S	-1.5	x
O=c1oc2ccc(Cl)cc2nc1/C=C(\O)c1ccco1	x	-98
O=C(COC(=O)CSc1ccc2ccccc2c1)NC1CCCC1	0.0	-2
CN(C)CCOC(c1ccccc1)c1ccccc1	2.3&0.7	x
CNCCCNc1ccnc2cc(Cl)ccc12	12	20
CCCC(=O)Nc1ccc(Cl)c(NC(=O)c2cccnc2Cl)c1	4.8	1
CC(=O)N1N=C(c2c(-c3ccccc3)c3cc(C)ccc3[nH]c2=O)CC1c1ccco1 (stereo unspecified)	x	-12
Cc1c(CNCCc2c[nH]c3ccccc23)c(C(=O)O)c(C)n1Cc1ccc(F)cc1Cl	0.3	9
COc1ccccc1N1CCN(CCCCNC(=O)c2ccc(Cl)cc2)CC1	x	-16
Cc1ccccc1N1CCN(C(=O)c2ccccc2O)CC1	x	9
Cc1nn(C)c2ncc(C(=O)O)c(SC(C)C)c12	0.2	x
O=C(CN1C(=O)/C(=C/c2ccccc2)Sc2ccccc21)N1CCCC1	3.0	15
Cc1ccc(N(C(=O)Cn2nnc(-c3ccc(C)o3)n2)C(C(=O)NCC2CCCO2)c2ccc(F)cc2)cc1 (stereo unspecified)	-1.4	1
O=C(C(Sc1nnnn1C1CCCC1)c1ccccc1)N1CCOCC1 (stereo unspecified)	x	-6
O=C(OCc1nc2ccc(Cl)cc2n1CCO)c1ccccc1	x	7
O=C1CCCC2=C1C(c1cccs1)C1=C(CCCC1=O)O2	x	-14
NS(=O)(=O)c1ccc(CCNC(=O)CC2=NS(=O)(=O)c3ccccc3N2)cc1	x	-26
CC(C)c1ccccc1NC(=O)CN1C(=O)c2ccccc2C1=O	1.1	-2
CN(C)CCN(C)Cc1ccccc1C(F)(F)F	-1.2	4
O=C(CN1C(=O)c2cccc3cccc1c23)Nc1ccccc1	-2.0	12
COc1cc(CN2CCC(N)CC2)cc(OC)c1OC	-1.6	5
OC(c1ccccc1)c1ccc2c(c1)c1c3n2CCNC3CCC1 (stereo unspecified)	-2.0	-2
Cc1c(C)c(C)c(CSc2nsc(SCc3c(C)c(C)c(C)c(C)c3C)c2C#N)c(C)c1C	4.6	x

Following part
SMILES	MgrA DNA FP	Sa helicase inh
COC(=O)c1oc2cc(C)ccc2c1C	x	19
CCCNS(=O)(=O)c1ccc2c(c1)n(C)c(=O)c(=O)n2C	-0.9	17
Cc1ccc(C)c(NC(=S)NC2CC3CCC(C2)N3Cc2ccco2)c1 (stereo unspecified)	-0.8	1
CCCc1[nH]nc2c1C(c1cc(OC)c(OC(C)=O)c(OC)c1)C(C#N)=C(N)O2 (stereo unspecified)	-1.4	4
CC1CC(C)CN(C(=O)CSc2nc3c(c(=O)[nH]2)CCC3)C1 (stereo unspecified)	x	-16
Cn1nc(C(=O)NC(c2ccccc2)c2ccccc2)ccc1=O	x	-10
O=C1c2ccccc2C2(c3ccccc3)NCCN12 (stereo unspecified)	-2.0	x
O=S(=O)(Nc1ccc(F)cc1)c1cccc2cccnc12	x	1
Cc1sc2cc(-[n+]3ccc(O)cc3)ccc2[n+]1-c1ccccc1	4.0	4
O=c1oc(-c2ccc(F)cc2)nc2scc(-c3ccc(Br)cc3)c12	-0.7	x
COc1ccc(CN2C(=O)c3cccnc3C2=O)cc1S(=O)(=O)N1CCCCC1	x	16
Cc1nn(-c2cccc(C(F)(F)F)c2)c2sc(C(=O)O)cc12	x	-11
COc1cc2c(cc1OC)C(c1ccccc1NC(=O)c1ccc(F)cc1)=NCC2	-1.3	x
CCCS(=O)(=O)NCc1ccc(C(=O)O)cc1	x	15
Cc1cc(C(=O)CSc2n[nH]c(-c3cccs3)n2)c(C)n1Cc1ccco1	x	-7
COc1ccc(CCNC(=O)Cn2sc3nc(C)cc(C)c3c2=O)cc1OC	x	7
O=C1N=c2ccccc2=C1c1c(O)[nH]c2ccc(Cl)cc12	-0.2	-7
O=C(COC(=O)C1(c2ccccc2F)CCCC1)c1cccs1	0.1	-6
Cc1ccc(C2CC(=O)N3CN(CCc4ccccc4)CSC3=C2C#N)cc1 (stereo unspecified)	x	8
CCS(=O)(=O)N1CCN(S(=O)(=O)c2ccc(C(C)C)cc2)CC1	3.0	15
Cc1ccc(N2C(=O)c3ccccc3C2C(=O)c2ccc(C)cc2O)cc1 (stereo unspecified)	0.8	x
NC(=S)NC1CC2CC1C1C=CCC21 (stereo unspecified)	x	-11
CC(=O)Oc1ccccc1-n1c(C)nc(=O)c(-c2ccccc2)c1C	-3.6	-13
Clc1ccc(C(c2ccccc2Cl)C(Cl)Cl)cc1 (stereo unspecified)	1.4	x
CNC(=O)NC(=O)C(C)Sc1nc2ccc(C)cc2[nH]1 (stereo unspecified)	x	-4

Compounds above with an NH in an aromatic ring:
SMILES	MgrA DNA FP	Sa helicase inh
COc1ccc(-c2[nH]ncc2Oc2ccccc2)c(O)c1	x	22
Cc1n[nH]c(C)c1S(=O)(=O)N1CCC(C(=O)N(C)Cc2cccc(Cl)c2Cl)CC1	x	7
Cn1c(SCc2c(F)cccc2Cl)n[nH]c1=S	-1.5	x
CC(=O)N1N=C(c2c(-c3ccccc3)c3cc(C)ccc3[nH]c2=O)CC1c1ccco1 (stereo unspecified)	x	-12
Cc1c(CNCCc2c[nH]c3ccccc23)c(C(=O)O)c(C)n1Cc1ccc(F)cc1Cl	0.3	9
CCCc1[nH]nc2c1C(c1cc(OC)c(OC(C)=O)c(OC)c1)C(C#N)=C(N)O2 (stereo unspecified)	-1.4	4
CC1CC(C)CN(C(=O)CSc2nc3c(c(=O)[nH]2)CCC3)C1 (stereo unspecified)	x	-16
Cc1cc(C(=O)CSc2n[nH]c(-c3cccs3)n2)c(C)n1Cc1ccco1	x	-7
O=C1N=c2ccccc2=C1c1c(O)[nH]c2ccc(Cl)cc12	-0.2	-7
CNC(=O)NC(=O)C(C)Sc1nc2ccc(C)cc2[nH]1 (stereo unspecified)	x	-4

(next part)
SMILES	MgrA DNA FP	Sa helicase inh
COc1ccc(Cn2cccc2C2=NCCO2)cc1	x	4
COc1ccccc1/C=C/C(=O)Nc1nc(N)n(-c2ccccc2)n1	1.1	2
O=C(NCc1ccco1)c1ccc2c(c1)OCCCO2	-1.5	x
CCOc1ccc2ccccc2c1C=Nc1ccccc1	-0.4	-2
CCn1c(SCC(=O)NCc2ccccc2)nc2c([nH]c3ccccc32)c1=O	x	-20
COc1ccc(-c2noc(CN(C)C(=O)N3c4ccccc4Sc4ccccc43)n2)cc1OC	-0.9	-1
Cc1cc(C)nc(N2CC(=O)N(CCOc3ccc(Br)cc3)C2=O)n1	0.8	11
O=C(NC(=O)c1csc(-c2ccc(C(F)(F)F)cc2Cl)n1)Nc1ccc(F)cc1	-1.1	x
CC(=O)Oc1ccc2cc(-c3nc4ccccc4s3)c(=O)oc2c1	x	-178
Cc1noc(/C=C/N2CCOCC2)c1S(=O)(=O)N1CCN(c2ccc(F)cc2)CC1	-7.9	8
Cc1ccsc1C(=O)OCC(=O)c1cc2ccccc2o1	x	-15
CCOC(=O)N1CCN(C(=O)CN(C)S(=O)(=O)c2ccc3c(c2)c(=O)n(C)c(=O)n3C)CC1	-1.4	22
COC(=O)c1ccn(-c2nc(-c3cccs3)cc(C(F)(F)F)n2)n1	x	-20
O=c1[nH]cnc2cccc(F)c12	x	-2
COc1ccc(CC(=O)N2CCC3(CC2)N=C(c2ccc(C)cc2)C(=O)N3)cc1OC	x	-20
C#Cc1cccc(NC(=O)NC(=O)c2c(F)cccc2F)c1	-1.0	x
Cc1nc(C)c(CCNC(=O)c2cccs2)s1	x	10
C=CCC(C#Cc1ccccc1)N(C)C (stereo unspecified)	-0.2	9
Cc1ccc2c(=O)cc(-c3ccc(F)cc3)oc2c1	4.0	7
Cc1ccc(S(=O)(=O)N(C)c2ccc(OCC(=O)Nc3ccc(N4CCN(C)CC4)cc3C)cc2)cc1	x	9
C#CC1(O)c2ccccc2CCc2ccccc21	x	-13
CP1(=O)COc2ccccc2OC1	x	1
O=C(c1cccc(Br)c1)N1CCN(c2cnn(-c3ccccc3)c(=O)c2Cl)CC1	-0.4	11
CN(C)Cc1ccc(CN)cc1	4.2	12
Cc1csc(=O)n1CC(=O)Nc1ccccc1	x	-3
CNC(=O)CSc1ncn[nH]1	-0.5	x
CCCOc1ccc(-c2ccc(C(=O)O)cc2)cc1	2.8	-8
CCOC(=O)c1ccc(NC(=O)NCc2noc3ccc(C)cc23)cc1	x	-6
CC1CCCCN1C(=O)c1cccs1 (stereo unspecified)	-1.2	0
CC(Sc1nc(=O)cc(N)n1-c1ccccc1)C(=O)Nc1ccccc1 (stereo unspecified)	x	4
COc1ccc(Cl)cc1NC(=O)CN1CCN(S(=O)(=O)N(C)C)CC1	-1.5	-3
CC(C)Cn1c(-c2ccc(Cl)cc2)cnc1SCC(=O)N1CCCC1	-1.8	2
Cc1ccc(NC(=O)C2CCN(Cc3cnn(-c4ccccc4)c3-n3cccc3)CC2)cc1	x	11
Cc1c(C(=O)N(C)Cc2ccccc2)sc2ncn(CC(=O)N3CC(C)CC(C)C3)c(=O)c12 (stereo unspecified)	3.8	9
N#CCCN(CCc1ccccc1)S(=O)(=O)c1cccc2nsnc12	-5.1	x
CCn1c(C)c2c(C)nn3cc(C)cc3c2c1C	x	-11
O=C1COc2c1c1c(c3oc(=O)ccc23)C(=O)CO1	x	-9
CC1CCCCC1NC(=O)COC(=O)COc1ccccc1F (stereo unspecified)	x	12
O=C(CO/N=C/c1ccco1)Nc1cccc(I)c1	x	0
CCN1CCN(C(=S)Nc2ccccc2)CC1	2.0	-3
CCCCS(=O)(=O)NC1CCCCCCC1	-2.7	4
N#CCCN(Cc1ccncc1)C(=O)c1sc2ccccc2c1Cl	2.6	x
O/C(=C\c1ccc2ccccc2n1)c1ccc(O)cc1O	7.4	-107
O=S(=O)(c1cccc2nsnc12)N(CCOc1ccccc1)C1CCCCC1	-0.5	-4
c1csc(-c2nc(N3CCN(Cc4ccc5c(c4)OCO5)CC3)c3ccccc3n2)c1	x	-8
CCOC(=O)c1c(CC(C)C)csc1N	0.6	20
CCOc1ccc(NC(=O)C(C)N(c2ccc(OCC)cc2)S(C)(=O)=O)cc1 (stereo unspecified)	x	43
COC(=O)c1c(C)c(C)[nH]c(=O)c1C#N	0.3	-3
COc1cccc2c1OC1=C(C2)C(=O)CC(C)(C)C1	0.0	x
Cc1nc2ccccn2c1-c1ccn[nH]1	0.3	x

Following part:
SMILES	MgrA DNA FP	Sa helicase inh
CCOc1cccc2sc(NC(=O)c3ccccc3F)nc12	x	2
COc1cc(C(=O)Nc2ccccc2SCCC#N)cc(OC)c1OC	-1.4	x
CCOc1cc(C2N(C)C(=O)c3ccccc3N2C)ccc1O (stereo unspecified)	-3.1	2
O=C(O)CCCc1cccs1	x	8
CN(C)C(=O)CSc1nnc(-c2ccc(O)cc2)o1	4.5	4

Bioassay records from PubChem BioAssay.
